Bioassay records as filed in PubChem BioAssay.
Cruzain inh Det: inhibitors of Trypanosoma cruzi cruzain with detergent | purified cruzain, Z-FR-AMC fluorescence, 0.01% Triton | AID 1478 | P25779 | 200,000 tested, 0.43% active | Potency, µM, for inactives: max response, negative = inhibition, usual class: inhibitors; active = well fitted curve in the direction sought with a large enough effect; inconclusive = small, poorly fitted or top-dose-only effect, or another doubt; inactive = no such curve, though single readings can be large; an effect the other way counts as inactive or inconclusive;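 note: plate controls were neutral wells for no effect and buffer without enzyme for full effect; nearly all actives have a fitted effect of over 40% in size; top concentration of the series not given in the record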
Target sequence (P25779 123-467 limits assumed): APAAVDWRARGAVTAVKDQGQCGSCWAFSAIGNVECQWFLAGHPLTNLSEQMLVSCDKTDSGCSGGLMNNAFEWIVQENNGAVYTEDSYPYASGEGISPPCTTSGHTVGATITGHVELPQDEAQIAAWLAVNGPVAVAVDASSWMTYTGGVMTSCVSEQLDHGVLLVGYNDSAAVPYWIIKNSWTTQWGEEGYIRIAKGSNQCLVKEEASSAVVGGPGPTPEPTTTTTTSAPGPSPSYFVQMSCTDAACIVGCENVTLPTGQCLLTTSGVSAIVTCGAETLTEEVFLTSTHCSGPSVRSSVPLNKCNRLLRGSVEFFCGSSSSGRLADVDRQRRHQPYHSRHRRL
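Detergent-containing run (0.01% Triton X-100) in acetate buffer pH 5.5 with 5 mM DTT: enzyme at 1.5 nM final, 15 min compound preincubation at room temperature, then 2 uM Z-FR-AMC substrate. Activity taken as 60 s fluorescence increase at 360/450 nm.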
RE007 growth inh: less growth of the S. pombe RE007 Vpr strain | AID 651644 | 360,000 tested, 0.21% active | Potency, µM (top dose mostly 92.2 µM), without a hit: at the top dose activity change, negative = less growth | S. pombe RE007 Vpr strain, BacTiter-Glo ATP luminescence, 24 h; control for the full effect not named in the record; active = well fitted falling curve with a large enough effect; inconclusive = small, poorly fitted or top-dose-only effect; inactive = no such curve, though single readings can be large or run the other way;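 note: % is set by controls: 0 for no effect and ±100 for the full control effect; nearly all actives have a fitted effect of over 50% in size; the assay follows cell death caused by Vpr and the record does not say whether a fall means rescue or toxicity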
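Fission yeast RE007 carrying one integrated HIV-1 vpr copy, seeded at OD 0.01 in PMG+AL medium with 23 nL pinned compound. Grown 24 h at 30 degrees; viability read by BacTiter-Glo luminescence after 5 min.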
Lassa entry inh: blocks Lassa virus binding to or entry into cells | 300,000 tested, 1.2% active | Potency, µM (top dose mostly 37.9 µM), without a hit: top-dose activity change, negative = inhibition, usual class: inhibitors | Lassa virus pseudotype entry inhibition, cell reporter; control for the full effect not named in the record | AID 540256; active means well fitted inhibition curve with a large enough effect; inconclusive means small, poorly fitted or top-dose-only effect, or effect the other way; inactive means flat fitted curve, though single readings scatter; tested in HEK293 cells; note: % is set by controls: 0 for no effect and ±100 for the full control effect; nearly all actives have a fitted effect of over 50% in size; luciferase read-out
Cruzain noTriton: blocks cruzain activity in detergent-free assay; 200,000 tested, 2.3% active; purified cruzain, Z-FR-AMC fluorescence, no detergent; Potency, µM, without a hit: max response, negative = inhibition, usual class: inhibitors; active = well fitted curve in the direction sought with a large enough effect; inconclusive = small, poorly fitted or top-dose-only effect, or another doubt; inactive = no such curve, though single readings can be large; an effect the other way counts as inactive or inconclusive;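 note: plate controls were enzyme without inhibitor for no effect and buffer without enzyme for full effect; nearly all actives have a fitted effect of over 40% in size; top concentration of the series not given in the record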
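Detergent-free condition (0.00005% Triton X-100) in acetate buffer pH 5.5 with DTT. 1.5 nM enzyme and compound were pre-mixed 15 min, then 2 uM Z-FR-AMC substrate added; reaction progress from fluorescence change between first and third reads (60 s).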
MARV entry inh: Marburg virus entry inhibition | Potency, µM (highest dose often 37.8 µM), for the others: at the top dose activity change, negative = inhibition, actives largely listed as inhibitors | AID 540276 | 300,000 tested, 1.8% active | Marburg virus pseudotyped entry inhibition, cell reporter; control for the full effect not named in the record; about a third of the inactives were read at about 46 µM; active = well fitted inhibition curve with a large enough effect; inconclusive = small, poorly fitted or top-dose-only effect, or effect the other way; inactive = flat fitted curve, though single readings scatter; tested in HEK293 cells; about a fifth of its hits are not listed in these tables; note: % is set by controls: 0 for no effect and ±100 for the full control effect; luciferase read-out
SARS PLP yeast: SARS-CoV PLP inhibition in yeast. Potency, µM (top dose mostly 32.9 µM), for the others: top-dose activity, positive = growth rescue. S. cerevisiae expressing SARS-CoV PLpro, growth rescue; control for the full effect not named in the record. 330,000 tested, 0.19% active; note: 0% is about no effect; nearly all actives have a fitted effect of over 55% in size; growth read by luminescence after 48 h
2A StopGo: FMDV 2A StopGo reporter, luciferase signal. human cells with a luciferase reporter of 2A StopGo recoding; control for the full effect not named in the record. Potency, µM (series often up to 57.9 µM), for the others: at the top dose signal change, negative = less light. 410,000 tested, 1.2% active. AID 1159524; active = well fitted falling curve with a large enough effect; inconclusive = small, poorly fitted or top-dose-only effect; inactive = no such curve, though single readings can be large or run the other way; tested in HEK293T cells; note: % is set by controls: 0 for no effect and ±100 for the full control effect; nearly all actives have a fitted effect of over 45% in size; luciferase light after 4 h
NS1 function inh: influenza NS1 inhibition; 270,000 tested, 0.4% active; S. cerevisiae slowed by influenza A NS1, growth recovery by OD600; AID 2326; Potency, µM (titrated, usually from 46.1 µM), for the others: at the top dose activity, positive = more growth; note: actives are rising curves; nearly all actives have a fitted effect of over 50% in size
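OD600 was taken as the measure of yeast growth restored by compound in an NS1-expressing S. cerevisiae strain. Cells had been washed out of glucose medium and diluted 1:100 into galactose -URA medium, pH 6.0.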
The depositor's hits bear a star; ? = inconclusive; nt = no result given; & = joins results of further samples; [ ] = dose if it differs, or a comment. Unless noted, calls come from the whole dose curve; as a rule, active means well fitted rising curve with a large enough effect; inconclusive means small, poorly fitted or top-dose-only effect; inactive means no such curve, though single readings can be large or run the other way. Potency is the fitted concentration of half-maximal effect.

SMILES | Cruzain inh Det | RE007 growth inh | Lassa entry inh | Cruzain noTriton | MARV entry inh | SARS PLP yeast | 2A StopGo | NS1 function inh
NC(=O)SCC(=O)Nc1ccccc1C(=O)O | nt | -6% | nt | nt | nt | 0% | 2% | -2%
Cc1nc(C(=O)NNC(=O)c2ccc(Cl)cc2)c(C(F)(F)F)o1 | nt | 5% | -15% | nt | -6%[46.1 µM] | -3% | -15% | -6%
CC(C)(C)c1ccc(-c2nc(C=O)c3ccccn23)cc1 | -6.1% | -20% | ? | 1% | ? | -7% | 22% | -102%
CC12CCC(c3c(C(=O)Nc4nccs4)nn(-c4ccccc4)c31)C2(C)C (stereo not drawn) | -0.3% | 14% | -3% | ? | ? | -21% | ? | -39%
O=C(CSc1nnc2c(n1)[nH]c1ccc(F)cc12)N1CCOCC1 | nt | 16% | -3% | nt | -6% | -3% | 15% | -1%
O=C(c1ccsc1)N1CCCC(Nc2cccc(F)c2)C1 (stereo not drawn) | nt | 1% | 2%[46.1 µM] | nt | 5%[46.1 µM] | -5% | -4% | -1%
COc1ccc(CSc2nnnn2-c2ccccc2)cc1 | -5.5% | -24% | ? | 0% | -5% | -11% | -8% | -47%
Cc1cccc(-n2ncc(C(=O)N3CCN(C4CCCCC4)CC3)c2C2CCN(C(=O)OC(C)(C)C)CC2)c1 | -1.4% | nt | ? | -15% | nt | nt | -9% | nt
COc1ccc(/C=C2\N=C3CCCCCN3C2=O)cc1OC | -4.9% | 3% | ? | -2% | 14% | 0% | 24% | 1%
CC(C)Cc1cc(C(C)(C)C)ccc1OC(=S)N(C)C | nt | -11% | nt | nt | nt | -2% | -23% | 6%

Among those listed so far, these have an aryl methoxy group.
SMILES | Cruzain inh Det | RE007 growth inh | Lassa entry inh | Cruzain noTriton | MARV entry inh | SARS PLP yeast | 2A StopGo | NS1 function inh
COc1ccc(CSc2nnnn2-c2ccccc2)cc1 | -5.5% | -24% | ? | 0% | -5% | -11% | -8% | -47%
COc1ccc(/C=C2\N=C3CCCCCN3C2=O)cc1OC | -4.9% | 3% | ? | -2% | 14% | 0% | 24% | 1%

(more compounds)
SMILES | Cruzain inh Det | RE007 growth inh | Lassa entry inh | Cruzain noTriton | MARV entry inh | SARS PLP yeast | 2A StopGo | NS1 function inh
Nc1ccc2nc(SCC(=O)N3CCOCC3)sc2c1 | nt | 3% | ? | nt | ? | -1% | 24% | 2%
COCCn1nnnc1C(c1ccc(OC)cc1)N1CCN(C(=O)c2ccco2)CC1 (stereo not drawn) | nt | -5% | ? | nt | 9%[46.1 µM] | 11% | -3% | -6%
CCC(=O)Nc1ccc(NC(=O)CSc2nnnn2CC)cc1C | 5.3% | 20% | -2% | 2% | 11%[46.1 µM] | 1% | -20% | 5%
Cc1cccc(C)c1Nc1sc(C(=O)c2ccccc2)c(N)c1C(=O)Nc1ccc(F)cc1 | -3.5% | nt | 9%[46.1 µM] | ? | nt | nt | -8% | nt
Cc1cc(C)nc(NCCO)n1 | nt | -15% | -4% | nt | ? | 0% | 7% | 7%
COC(=O)c1ccc(CN2C(=O)NC3(CCCCC3)C2=O)cc1 | nt | -8% | ? | nt | ? | -1% | -12% | nt
O=C(CC1C(=O)NCCN1C(=O)Nc1ccc(F)cc1F)Nc1cc(Cl)ccc1Cl (stereo not drawn) | nt | 0% | 15% | nt | ? | 1% | -2% | -3%
O=C1CCCc2c1cc(C(=O)NCc1ccco1)c(=O)n2-c1ccc(Cl)cc1 | -4.8% | 1% | 0% | -3% | ? | 2% | -4% | -8%
Cc1csc(NC(=O)CSc2nnc(-c3ccc(S(=O)(=O)N4CCCC4)cc3)o2)n1 | -2.5% | -6% | -18% | -16% | -5%&-14% | -2% | -18% | 8%
NC1=NC[C@@H](Cc2ccc(O)cc2)N1CCCCC1CCCCC1 | nt | -14% | nt | nt | nt | -1% | -30% | -1%

The final four records of the section before open the next one:
SMILES | Cruzain inh Det | RE007 growth inh | Lassa entry inh | Cruzain noTriton | MARV entry inh | SARS PLP yeast | 2A StopGo | NS1 function inh
O=C(CC1C(=O)NCCN1C(=O)Nc1ccc(F)cc1F)Nc1cc(Cl)ccc1Cl (stereo not drawn) | nt | 0% | 15% | nt | ? | 1% | -2% | -3%
O=C1CCCc2c1cc(C(=O)NCc1ccco1)c(=O)n2-c1ccc(Cl)cc1 | -4.8% | 1% | 0% | -3% | ? | 2% | -4% | -8%
Cc1csc(NC(=O)CSc2nnc(-c3ccc(S(=O)(=O)N4CCCC4)cc3)o2)n1 | -2.5% | -6% | -18% | -16% | -5%&-14% | -2% | -18% | 8%
NC1=NC[C@@H](Cc2ccc(O)cc2)N1CCCCC1CCCCC1 | nt | -14% | nt | nt | nt | -1% | -30% | -1%
Cn1cnc(S(=O)(=O)N2CCC(C(=O)NCc3ccc(Cl)cc3)CC2)c1 | -1.3% | nt | 1%[46.1 µM] | -2% | nt | nt | 24% | nt
CCC(C)N1C(=O)/C(=C\c2cnc(N(C)C)nc2)C(=O)NC1=S (stereo not drawn) | nt | -13% | 6% | nt | ? | 1% | 22µM* | 9%
Cc1ccc(N=Cc2cc3c(cc2O)OC(N)=C(C#N)C3c2ccccc2)cc1 (stereo not drawn) | -5.1% | -6% | ? | ? | ? | 0% | ? | -2%
Cc1ccc(S(=O)(=O)NCC(=O)N/N=C/c2ccc(Cl)cc2Cl)cc1 | -12% | -4% | 5% | -17% | -19% | -2% | -15% | -8%
CC(=O)NC1CCN(CC(=O)Nc2nccs2)CC1 | nt | ? | 6% | nt | 7% | -2% | -13% | 5%
CCCCn1c(SCc2cccnc2)nc2c1c(=O)n(C)c(=O)n2C | -6.0% | 18% | -25% | 17% | -17% | -5% | ? | -15%
CCOC(=O)c1ccc2c(c1)[C@@H]1C=CC[C@@H]1[C@H](c1cccc(OC)c1OC)N2 | -6.5% | nt | 11%[46.1 µM] | -10% | -22%[46.1 µM] | nt | 0% | nt
COc1cccc(C2C(C(=O)Nc3ccc(C)cc3C)=C(C)Nc3nc4ccccc4n32)c1OC (stereo not drawn) | -17% | nt | -12%[46.1 µM] | 21% | ? | nt | -18% | nt
CCCCn1c(=O)[nH]c2nc3cc(NC(C)=O)ccc3nc2c1=O | nt | 5% | 14% | nt | 11% | 0% | 3% | -3%
COc1cccc(C2Nc3cc(Cl)c(S(N)(=O)=O)cc3S(=O)(=O)N2)c1 (stereo not drawn) | -1.1% | 2% | 0% | -3% | -2%[46.1 µM] | 12% | -2% | 6%
CCCCOC(=O)C(C)Nc1n[nH]c(=O)[nH]c1=O (stereo not drawn) | 4.4% | 13% | 2% | -8% | ? | -7% | -22% | 0%
COc1ccc(N2CCN(C(=O)c3ccc(C(C)(C)C)cc3)CC2)cc1 | -6.5% | ? | -8% | 26% | ? | -13% | -16% | -109%
O=C(C1COc2ccccc2O1)N1CCCC1 (stereo not drawn) | 8.4% | -9% | 8% | 3% | 4% | 2% | -15% | 7%
Cc1ccc(-c2csc(NC(=O)/C=C/c3cccs3)n2)cc1C | -5.4% | 22% | 13% | ? | ? | -8% | ? | -3%
Cc1ccc(C(=O)NCCC(=O)NCc2ccco2)cc1 | nt | 10% | nt | nt | nt | -3% | -8% | -3%
O/C(=C\Sc1nnc(Cc2ccccc2)o1)c1ccc(F)cc1 | 3.3% | 0% | 20% | 2% | -5% | -2% | nt | 0%
O=C(CN(C(=O)c1csnn1)c1cccc2ccccc12)NC1CCCC1 | nt | 6% | -5% | nt | ? | 7% | 1% | 1%
Cc1cccc2cc3c(NC(=O)CC(C)C)nn(C)c3nc12 | -1.1% | 2% | -4% | -17% | 3% | 2% | 4% | 1%
O=C1c2nc3cc(-c4ccccc4)[nH]n3c(=O)c2CN1Cc1ccccc1 | nt | 10% | nt | nt | nt | 0% | -8% | 1%
CCOc1cc(C)c(-c2onc(C(F)(F)F)c2-c2csc(C)n2)c(O)c1 | -2.7% | ? | -18% | 8% | -11% | -41% | ? | -118%
COc1ccccc1NC(=O)CSc1nnc(CC(=O)Nc2ccccc2)n1C | 4.4% | -3% | -15% | -4% | ? | -1% | 23% | -5%
CSc1ncc(C(=O)Nc2ccccc2)cn1 | nt | 0% | nt | nt | nt | -8% | -2% | -16%
NS(=O)(=O)c1ccc(CCNC(=O)C2CCCO2)cc1 (stereo not drawn) | nt | -13% | ? | nt | -25% | -1% | -9% | -6%
CCOC(=O)Cn1c(-c2nonc2NC(=O)c2ccccc2F)nc2ccccc21 | -1.9% | 4% | 0.28µM* | 25µM* | 0.28µM* | 2% | -17% | 7%
O=C(Cn1c(N2CCN(c3ccccc3)CC2)nc2ccccc21)c1ccccc1 | -1.0% | 12% | -5% | ? | 16%&16% | ? | ? | -9%
CCOP(=O)(OCC)c1nc(Cc2ccccc2)oc1NCc1ccccc1 | nt | -4% | nt | nt | nt | -1% | 1% | -4%
CCOC(=O)C(NC(=O)c1ccccc1OCC)(Nc1ncccn1)C(F)(F)F (stereo not drawn) | -5.5% | 2% | -12% | ? | -12% | 21% | -23% | -9%
COc1ccc(CCNC(=O)c2ccc(N(C)S(=O)(=O)c3ccccc3)cc2)cc1 | nt | 6% | -7% | nt | -17%[46.1 µM] | -2% | -1% | -9%
CCCc1nc2c(o1)CC(CC(C)SCC)CC2=O (stereo not drawn) | 2.1% | 4% | -6% | -4% | -25% | 9% | -10% | -47%
O=C(c1ccc([N+](=O)[O-])s1)N1CCN(c2ccccn2)CC1 | nt | -28% | 0% | nt | 1%[46.1 µM] | -8% | -5% | -5%
COc1ccc(-n2nc(C(=O)NCC(=O)N(C)Cc3ccccc3)c3ccccc3c2=O)cc1OC | nt | 6% | 3%[46.1 µM] | nt | 0%[46.1 µM] | -2% | -10% | -14%
COc1ccc(-n2nnnc2CNC(=O)c2ccc3ccccc3c2)cc1 | nt | 8% | ? | nt | 4% | -1% | 0% | nt
CCN(CC)S(=O)(=O)c1ccc(C(=O)NCCOC(=O)c2ccc(F)cc2F)cc1 | nt | -4% | -8% | nt | 2%[46.1 µM] | 0% | 10% | 5%
